Source: PubChem BioAssay (several laboratories)
Rce1 inhib – yeast Rce1p protease inhibitors, primary screen, biochemical, fluorescence, cell-free homogeneous; CAAX prenyl protease 2 (Saccharomyces cerevisiae (strain ATCC 204508 / S288c)), Q03530; yeast membranes, quenched prenylated peptide cleavage fluorescence; calls only; 290,000 compounds, 0.27% hits; AID 2563, 2010;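 active = fall in fluorescence gain of 50% or more versus controls, with final raw signal at or below 3038400; inconclusive = same 50% fall but final raw signal above 3038400; inactive = fall in fluorescence gain under 50%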;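 note: plate controls were neutral control wells for no effect and wells lacking membranes for full effect; tested at 10 µM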
Target sequence (Q03530 whole entry, looked up): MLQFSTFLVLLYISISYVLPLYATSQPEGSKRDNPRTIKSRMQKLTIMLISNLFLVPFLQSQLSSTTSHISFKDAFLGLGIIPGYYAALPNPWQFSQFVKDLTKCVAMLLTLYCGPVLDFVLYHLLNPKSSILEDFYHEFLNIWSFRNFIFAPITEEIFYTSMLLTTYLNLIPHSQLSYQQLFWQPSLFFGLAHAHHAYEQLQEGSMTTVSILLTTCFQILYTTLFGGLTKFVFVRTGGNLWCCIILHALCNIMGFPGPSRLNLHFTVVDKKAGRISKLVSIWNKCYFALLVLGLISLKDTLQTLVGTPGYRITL
eIF4H inh – human eIF4H binding inhibitors, primary screen, translation initiation inhibitor project, biochemical, uHTS, fluorescence polarization. eIF4H fluorescence polarization binding assay. Eukaryotic translation initiation factor 4H (Homo sapiens), Q15056. 290,000 compounds, 0.94% hits. inhibition, % at 35 µM;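 active = 50% or more with normal probe brightness, or confirmed in later tests; inconclusive = above 50% with abnormal brightness, or retests that disagree; inactive = below 50% or failed in later tests; about a fifth of its hits are not listed in these tables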;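 note: calls also rest on retests at 20 µM and on dose response follow-up; 0% = protein and probe with vehicle and 100% = probe without protein; strong numbers were not always called active; many hits fall short of the cut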
PABP FP inh – PABP poly(A) RNA binding inhibitors, primary screen, biochemical, fluorescence polarization, uHTS. Polyadenylate-binding protein 1 (Homo sapiens), P11940. inhibition, % at 35 µM. 290,000 compounds, 1% hits;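 active = 50% or more with normal probe brightness, or confirmed in later tests; inconclusive = above 50% with abnormal brightness, or retests that disagree; inactive = below 50% or failed in later tests; about a fifth of its hits are not listed in these tables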;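 note: calls also rest on retests at 20 µM and on dose response follow-up; controls were probe without protein and protein plus probe with vehicle; some compounds called inactive have numbers as strong as hits; many hits fall short of the cut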
CSC inhib – cancer stem cell viability inhibitors, primary screen, luminescence; cancer stem cell-like cells viability; inhibition, % at 7.5 µM; 300,000 compounds, 1.1% hits;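 active = mean at 75% or more and at least half the replicates too; inconclusive = mean and replicates disagree; tested in HMLE shEcad cells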;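 note: 0% = median of negative and 100% = median of positive control wells; the first replicate is given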
MT1-MMP act inh – blockers of MT1-MMP proenzyme processing, primary screen, HT1080 RFP-PRO-GFP cells, GFP/RFP fluorescence | 360,000 compounds, 0.061% hits | GFP/RFP ratio change, % at 20 µM | Matrix metalloproteinase-14 (Homo sapiens), P50281 | AID 651647, 2012 | GFP/RFP ratio fluorescence, overnight; percent of plate control window, DMSO zero;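 active = GFP/RFP ratio change of at least 30% with cell ATP level not reduced by more than half and red fluorescence within 50% of control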; note: strong numbers were not always called active
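Assay system: RFP-PRO-GFP reporter HT1080 cells; read-out basis: GFP/RFP fluorescence ratio; benchmarks: DMSO wells and RFP-L50D-GFP cells; doses: 20 µM single dose, 1% DMSO; schedule: overnight cell settling, then overnight compound exposure, 37 °C, 5% CO2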
Yeast UUG start – modulators of yeast start codon fidelity, primary screen, whole organism, S. cerevisiae, single point, plate reader; S. cerevisiae UUG-firefly luciferase reporter, luminescence/redox ratio; activity score, % at 18.7 µM; 350,000 compounds, 0.13% hits; AID 602363, 2012;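 active = replicate mean at a twofold rise or more, about +100% in these data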;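 note: firefly luciferase made from a UUG start codon reports start codon fidelity; reporter light over untreated wells divided by growth signal over untreated wells; some hits fall short of that in this replicate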
HIV Env fusion – inhibitors of HIV-1 Env-driven cell-cell fusion, primary screen, HeLa-JRFL effector, CEM21 target cells, luciferase | inhibition, % at 12.3 µM | 360,000 compounds, 1.1% hits | AID 651610, 2012;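 active = mean replicate inhibition score of at least 50 and every replicate individually at or above 50; inconclusive = only one of the two criteria met; inactive = mean below 50 and not all replicates reaching 50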;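 note: 0% = plate neutral controls and 100% = maraviroc near 300 nM; one replicate is shown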
eIF4H inh retest – recorded beside eIF4H inh, whose call it bears; inhibition, %; compound at 20 µM; confirmation average;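 mean of two retest wells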
PABP FP inh retest – recorded beside PABP FP inh, whose call it bears; inhibition, %; compound at 20 µM; confirmation repeats;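 mean of two retest wells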
MT1-MMP act inh RFP – also measured in MT1-MMP act inh; calls as there; RFP signal change, %; measured here: RFP expression control read;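 0 = vehicle wells; hits needed this value within 50% of zero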
Numbers without * were called inactive; i = inactive; ? = inconclusive; nt = no result given.

SMILES	Rce1 inhib	eIF4H inh	PABP FP inh	CSC inhib	MT1-MMP act inh	MT1-MMP act inh RFP	Yeast UUG start	HIV Env fusion	others
COc1ccc2cc(C(=O)NCc3ccco3)c(=Nc3ccc(C(=O)O)cc3)oc2c1	i	6	2	1	7	-3	-17	-91
CC(C)C(NC(=O)C1CC(=O)N(Cc2ccccc2)C1)c1nc2ccccc2[nH]1 (centres undefined)	nt	nt	nt	-9	-2	1	-7	-10
CC1CC(C)CN(C(=O)c2cn(C)c3ccc(S(=O)(=O)N(C)C)cc3c2=O)C1 (centres undefined)	i	1	-2	-1	-1	5	-13	-11
Brc1ccc(Cn2c(-c3cncs3)nc3ccccc32)cc1	i	2	7	-2	-2	-6	-18	-1
COc1ccc(OCC2CCCN(Cc3nc(CC4CC4)no3)C2)cc1 (centres undefined)	i	-4	-9	-5	4	-3	nt	-10
CSc1nnc(-c2ccc(C(F)(F)F)cn2)o1	i	-6	-5	9	-1	-1	4	-19
Cc1cc2c(c(=O)o1)C(c1ccc([N+](=O)[O-])o1)C(C#N)=C(N)O2 (centres undefined)	i	93*	62*	-3	-30	10	-28	-21	eIF4H inh retest=100*;PABP FP inh retest=96*
CC(C)(C)C(=O)NC1(C(F)(F)F)NC(=O)N(c2ccc(F)cc2)C1=O (centres undefined)	nt	-3	-9	-3	1	1	-13	14
Cn1cc(C(=O)N2CCCCCC2)c(=O)c2cc(S(=O)(=O)N3CCCCC3)ccc21	i	-2	4	-11	0	4	8	-1
CC1CCN(S(=O)(=O)c2ccc3c(c2)N(CC(=O)N(C)Cc2ccco2)C(=O)CO3)CC1	i	nt	nt	12	-3	2	5	11
CCS(=O)(=O)c1ccc2oc(Nc3ccc(C(C)C)cc3)nc2c1	i	-3	-6	-3	-2	-2	-12	nt
C=CCc1ccc(OCCOCCNCCOC)c(OC)c1	i	-3	-3	-8	7	6	5	nt
O=C(c1ccc(CS(=O)(=O)c2ccccc2)o1)N1CCN(c2ncccn2)CC1	i	-8	5	-7	-6	-2	16	-17
Cc1c(CN(C)CCc2ccccc2)c(=O)n(-c2ccccc2)n1C	i	-1	13	nt	1	5	-16	nt
COCCCN1C(=O)C(CC(=O)NCc2ccco2)CC(C(=O)N(C)C)=C1C (centres undefined)	nt	nt	nt	nt	2	2	-9	-96
CCOC(=O)c1cnn2c(C(F)(F)F)cc(-c3ccco3)nc12	i	4	14	-3	5	6	-19	nt
COc1ccc(CC(=O)NCC(c2ccc(OC)cc2)N(C)C)cc1 (centres undefined)	i	-3	2	-1	-5	2	-12	3
Cc1cc(-c2ccc(C(=O)O)s2)cnc1N	?	-4	0	-7	2	6	nt	-35
O=C(NC(Cc1ccccc1)C(=O)N1CCN(c2ccccc2O)CC1)c1ccccc1 (centres undefined)	nt	nt	nt	nt	1	2	5	9
COc1cccc(C(=O)Cn2c(=O)n(CCC(=O)NCC3CCCO3)c(=O)c3cc(OC)c(OC)cc32)c1 (centres undefined)	i	2	-19	-9	-2	1	nt	3
COCCn1c(C)cc(C(=O)COC(=O)c2ccc[nH]c2=O)c1C	i	4	7	-6	-10	-4	nt	18
CC(C)c1ccc(NC(=S)NN2CCN(C)CC2)cc1	i	0	-14	0	2	-1	nt	-8
CC1CCCCN1C(=O)CCS(=O)(=O)c1cc2c(cc1Cl)NC(=O)CO2 (centres undefined)	i	-16	8	nt	1	1	6	28
Cc1cc(C)c2[nH]c(=O)c(C(c3nnnn3C(C)(C)C)N3CCN(C(=O)c4ccco4)CC3)cc2c1 (centres undefined)	i	-4	11	-9	-8	-1	-1	-21
CCOC(=O)NNc1ccc2nonc2c1[N+](=O)[O-]	nt	46	44	1	nt	nt	nt	nt
O=C(COc1cnc2ccccc2n1)NCCC1=CCCCC1	i	6	7	-15	-3	1	-1	-66
NC(=S)Nc1ccc(F)cc1F	i	-3	3	-2	0	0	-16	-33
O=C(NCc1ccc2c(c1)OCO2)c1ccc(CN2CCOCC2)cc1	i	-1	-4	-2	0	1	-19	-10
Cc1noc(/C=C/N(C)C)c1S(=O)(=O)N1CCC(C(=O)O)CC1	i	0	-2	-17	-14	3	-2	nt
COc1ccccc1NC(=O)COC(=O)/C=C/c1cccs1	nt	nt	nt	13	6	5	-6	nt
CCCN(C(=O)c1cccc(S(=O)(=O)N2CCN(Cc3ccccc3)CC2)c1)C1CCS(=O)(=O)C1 (centres undefined)	i	nt	nt	1	1	0	-18	nt
O=C(N/N=C/C=C/c1ccco1)C(O)c1ccccc1 (centres undefined)	i	nt	nt	4	-5	2	-6	-30
C=CCn1c(CCC(O)COCCC)n[nH]c1=S (centres undefined)	i	1	3	-5	0	0	0	1
Cc1cccc(C(=O)OCC(=O)NC2CC2)c1O	nt	nt	nt	-10	0	2	-12	-25
CCOc1ccc(S(=O)(=O)N2CCOCC2)cc1NC(=O)CCOc1ccc(C(C)(C)C)cc1	nt	nt	nt	nt	2	-5	-17	18
S=c1[nH]nc(C2CCCCC2)n1/N=C/c1ccncc1	i	-1	0	0	-12	-10	nt	56*
Cc1ccc(SC(C)C(=O)Nc2ccncc2)cc1 (centres undefined)	i	4	8	nt	1	-9	-14	19
O=C(NNC(=S)NC(=O)c1ccccc1[N+](=O)[O-])c1ccccc1Cl	i	11	-3	2	4	7	nt	-3
CC(=O)N(/N=C/c1cccc(C)c1)c1nc(-c2ccc(Br)cc2)cs1	i	0	-8	24	1	1	-16	-136
CCC(C)NC(=O)CSc1nc2c(sc3ccccc32)c(=O)n1CCCN1CCOCC1 (centres undefined)	i	10	-4	-15	7	6	-19	?
Cc1cccc(CN2CCN(C3CN(Cc4ccc([N+](=O)[O-])cc4)S(=O)(=O)C3)CC2)c1 (centres undefined)	nt	nt	nt	nt	6	-2	-4	-31
COc1cc2c(cc1OC)[C@@H](Cc1ccc(OCCC#N)cc1)N(C)CC2	i	8	4	-12	2	2	-1	16
COc1ccc2c(C(=O)CN3CCN(c4ccccc4)CC3)c[nH]c2c1	i	69*	70*	0	-12	2	-14	-25
CC(OC(=O)c1ccco1)C(=O)Nc1ncc(Cl)cc1Cl (centres undefined)	nt	nt	nt	nt	0	3	-9	4
C=Cc1ccc(CN2CCCN(Cc3ccc(Cl)cc3)S2(=O)=O)cc1	i	-4	-6	15	3	4	-6	15
Cn1c(=O)oc2cc(S(=O)(=O)N3CCCC(C(=O)Nc4ccc5c(c4)OCCO5)C3)ccc21 (centres undefined)	nt	0	-6	-7	-4	-5	-8	0
COc1ccc(-c2nnc(-c3ccccc3O)o2)cc1	i	-5	4	5	-2	1	-15	-80
O=C(O)c1ccc(NC(=O)C2CCN(S(=O)(=O)c3ccc4c(c3)OCCO4)CC2)cc1	nt	nt	nt	nt	-4	6	-12	-5

Already shown: entries from further up.
SMILES	Rce1 inhib	eIF4H inh	PABP FP inh	CSC inhib	MT1-MMP act inh	MT1-MMP act inh RFP	Yeast UUG start	HIV Env fusion	others
O=C(NNC(=S)NC(=O)c1ccccc1[N+](=O)[O-])c1ccccc1Cl	i	11	-3	2	4	7	nt	-3
CC(=O)N(/N=C/c1cccc(C)c1)c1nc(-c2ccc(Br)cc2)cs1	i	0	-8	24	1	1	-16	-136
CCC(C)NC(=O)CSc1nc2c(sc3ccccc32)c(=O)n1CCCN1CCOCC1 (centres undefined)	i	10	-4	-15	7	6	-19	?
Cc1cccc(CN2CCN(C3CN(Cc4ccc([N+](=O)[O-])cc4)S(=O)(=O)C3)CC2)c1 (centres undefined)	nt	nt	nt	nt	6	-2	-4	-31
COc1cc2c(cc1OC)[C@@H](Cc1ccc(OCCC#N)cc1)N(C)CC2	i	8	4	-12	2	2	-1	16
COc1ccc2c(C(=O)CN3CCN(c4ccccc4)CC3)c[nH]c2c1	i	69*	70*	0	-12	2	-14	-25
CC(OC(=O)c1ccco1)C(=O)Nc1ncc(Cl)cc1Cl (centres undefined)	nt	nt	nt	nt	0	3	-9	4
C=Cc1ccc(CN2CCCN(Cc3ccc(Cl)cc3)S2(=O)=O)cc1	i	-4	-6	15	3	4	-6	15
Cn1c(=O)oc2cc(S(=O)(=O)N3CCCC(C(=O)Nc4ccc5c(c4)OCCO5)C3)ccc21 (centres undefined)	nt	0	-6	-7	-4	-5	-8	0
COc1ccc(-c2nnc(-c3ccccc3O)o2)cc1	i	-5	4	5	-2	1	-15	-80
O=C(O)c1ccc(NC(=O)C2CCN(S(=O)(=O)c3ccc4c(c3)OCCO4)CC2)cc1	nt	nt	nt	nt	-4	6	-12	-5

More records follow:
SMILES	Rce1 inhib	eIF4H inh	PABP FP inh	CSC inhib	MT1-MMP act inh	MT1-MMP act inh RFP	Yeast UUG start	HIV Env fusion	others
COc1cccc(OCC(=O)NNC(=O)c2ccc(-c3ccccc3)cc2)c1	i	8	1	-2	1	0	-19	-80
Nn1c(-c2cccc([N+](=O)[O-])c2)nc2ccccc2c1=O	i	-7	-2	-5	3	3	-16	-6
CC(C(=O)NCCCc1ccccc1)c1ccc([N+](=O)[O-])cc1 (centres undefined)	i	-5	-15	1	-5	-3	nt	12
COc1ccccc1OCCCCn1ncc2ccc(OC)c(OC)c2c1=O	i	1	-7	-3	-2	1	-1	8
NNc1nc2c(-c3cccc(C(F)(F)F)c3)nnn2c2ccccc12	i	76	5	50	-63	-30	-18	-7	eIF4H inh retest=-9;PABP FP inh retest=33
O=C(O)CC1NC(=O)N(c2ccccc2)C1=O (centres undefined)	i	4	0	nt	nt	nt	nt	-24
COc1ccccc1C(=O)NCc1ccccn1	i	-1	-2	-9	-2	1	nt	4
CC(C)(C)NC(=O)COC(=O)/C=C/c1ccccc1[N+](=O)[O-]	nt	-3	-4	-13	-6	-3	-4	44
Cc1cccc(OCCC(=O)NCC(c2ccco2)N2CCCCC2)c1 (centres undefined)	i	5	0	2	3	5	-3	33
Cc1cc(OC(=O)c2ccco2)c2c(C)cc(=O)oc2c1	i	-6	0	-2	3	3	nt	-26
CCN(CC(=O)Nc1ccc2c(c1)OCCO2)S(=O)(=O)c1cccs1	i	0	-2	0	7	4	-18	nt
COc1ccc(-c2nc3ccccc3[nH]2)cc1	i	-9	-5	nt	14	0	nt	nt
COc1ccc(-n2nnnc2SCC(=O)N2CCCC2)cc1OC	i	-3	-3	2	-1	4	-16	10
Nc1nnc(SCC(=O)Nc2ccc3nc(SCC(=O)Nc4ccccc4)sc3c2)s1	i	-5	2	32	-9	-22	0	11
C/C(=N\NC(=O)C1(C)CC1(Br)Br)c1cccc(NC(=O)C2CCC2)c1 (centres undefined)	i	-2	5	6	2	3	-4	nt
Cc1ccc(NS(=O)(=O)c2ccc(C(=O)NCCCN3CCCC3=O)cc2)cc1C	i	nt	nt	-6	-5	-13	-10	5

An excerpt; rates above refer to the full screens.
